Menin-MLL FL inh – displaces fluorescein MLL peptide from human menin; 290,000 tested, under 10 active; AID 1766; Fluorescence polarization, fluorescein-MLL peptide displacement from menin; FP activity change, % at 61.4 µM; inconclusive = falling polarisation curve, or a change in total fluorescence; inactive = total fluorescence flat and polarisation flat or rising; no compound was filed as active; the % refers to the polarisation; negative = inhibition;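 also: % of control where 0% means no effect; inhibitors lower the polarisation; unlabelled MLL peptide was the positive control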
ClpP mod – qHTS Assay for Activators of ClpP | ATP-dependent Clp protease proteolytic subunit (Bacillus subtilis (strain 168)), P80244 | purified B. subtilis ClpP, FRET peptide cleavage, 20 min | AID 651965, 2013 | hit rate 1.9% among 340,000 | Potency, µM (highest dose often 57.5 µM), inactives show at the top dose activity change, negative = active; active = well fitted falling curve with a large enough effect; inconclusive = small, poorly fitted or top-dose-only effect; inactive = no such curve, though single readings can be large or run the other way; also: potency is read from the fitted curve at half-maximal effect; the source files actives as falling curves though it sought activators and does not explain the sign; nearly all actives have a fitted effect of over 65% in size; many hits overshoot -100%
Target sequence (P80244 whole entry, looked up): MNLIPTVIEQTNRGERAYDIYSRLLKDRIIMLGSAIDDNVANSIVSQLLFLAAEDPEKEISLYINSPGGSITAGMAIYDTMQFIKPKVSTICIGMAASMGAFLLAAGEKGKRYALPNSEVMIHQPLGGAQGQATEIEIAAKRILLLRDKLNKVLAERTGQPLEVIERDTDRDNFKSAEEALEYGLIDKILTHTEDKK
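Buffer: 100 mM Tris/HCl pH8, 100 mM KCl, 0.05% low protease BSA, 2.5% glycerol, 0.01% Tween-20. ClpP 10 microg/mL final; 20 min RT; delta FRET normalized to ADEP and DMSO controls.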
gsp ag – agonists of gsp mutant (McCune-Albright syndrome); gsp mutant cells, cAMP HTRF, 30 min; control for the full effect not named in the record; Potency, µM (series often up to 76.9 µM), for the others: at the highest dose activation (cAMP increase), hits mostly activators; hit rate 0.13% among 340,000; AID 624287; active = well fitted activation curve with a large enough effect; inconclusive = small, poorly fitted or top-dose-only effect, or another doubt; inactive = no such curve, though single readings can be large or run the other way; cell line not stated here;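 also: phosphodiesterase inhibitor Ro 20-1724 added with compounds to block cAMP breakdown; potency is read from the fitted curve at half-maximal effect; nearly all actives have a fitted effect of over 60% in size; about a fifth of the inactives were tested at one dose only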
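Cells stably selected in G418 were plated at 2000/well, grown 16-24 hr, then given compounds in DMSO with the PDE inhibitor […] (300 uM solution added) for 30 min at 37C; cAMP was read by HTRF.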
gsp antag – antagonists of gsp mutant (McCune-Albright syndrome). AID 624288. Potency, µM (highest dose often 76.9 µM), for the others: at the highest dose activity change, negative = inhibition, most hits filed as inhibitors. hit rate 0.4% among 340,000. gsp-mutant cells, cAMP HTRF, 30 min; control for the full effect not named in the record; active = falling curve of any shape with a large fitted effect; inconclusive = falling curve, mostly with a smaller effect; inactive = flat or rising curve; cell line not stated here;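 also: intracellular cAMP measured with PDE inhibitor Ro 20-1724 present during compound exposure; potency is read from the fitted curve at half-maximal effect; % is scaled to controls: 0 for no effect and ±100 for the full control effect; nearly all actives have a fitted effect of over 65% in size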
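HTRF cAMP read-out (cAMP-d2 plus anti-cAMP antibody-K in lysis buffer, 30 min RT). Before lysis, cells are exposed to compounds with […] for 30 min at 37C in DPBS containing Ca/Mg, BSA and Tween 20.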
Sfp inh – Sfp phosphopantetheinyl transferase inhibition. AID 1490. Potency, µM, without a hit: max response, negative = inhibition, actives largely listed as inhibitors. Biochemical Sfp PPTase activity, qHTS. Q9F4F7. hit rate 3.5% among 310,000; active = well fitted inhibition curve with a large enough effect; inconclusive = small, poorly fitted or top-dose-only effect, or another doubt; inactive = no such curve, though single readings can be large or run the other way;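 also: the enzyme is Sfp with the accession as filed and its product quenches rhodamine fluorescence; potency is read from the fitted curve at half-maximal effect; 0% = enzyme reaction without inhibitor and -100% = no enzyme wells; top concentration of the series not given in the record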
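After 15 min at room temperature with compound, 15 nM Sfp received 5 uM rhodamine-CoA plus 12.5 uM BHQ-2-ybbR (50 mM Hepes pH 7.6, 10 mM MgCl2). Rate came from the fluorescence difference over 30 min, ex 525/em 598 nm.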
CtBP-E1A inh – CtBP/E1A binding inhibition; AlphaScreen GST-E1A/His-CtBP binding, 1536-well; active compounds read low; control for the full effect not named in the record; activity change, % (no concentration beside the values); hit rate 0.49% among 340,000; in the data active means activity change below about -65%; inconclusive means about -30% to -65%; inactive means above about -30%; also: % is scaled to controls: 0 for no effect and ±100 for the full control effect
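Protein mix (5X: 125 nM each GST-E1A, His-CtBP) was incubated with pinned compound 2 h at 37 deg C in dark, in 50 mM Tris pH 8.0 buffer with 300 mM NaCl. Glutathione donor and nickel acceptor beads followed; AlphaScreen signal read after 1 h.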
TRPV1 PAM – potentiators of human vanilloid receptor 1 (TRPV1). TRPV1-expressing cells, Fluo-8 calcium influx, capsaicin EC20 potentiation; host cell line not named in the record; control for the full effect not named in the record. potentiation, % at 8.33 µM. Q8NER1. hit rate 0.02% among 320,000; active means potentiation above 80%; inconclusive means 30% to 80%; inactive means below 30%; also: 0% is about no effect
Target sequence (Q8NER1 whole entry, looked up): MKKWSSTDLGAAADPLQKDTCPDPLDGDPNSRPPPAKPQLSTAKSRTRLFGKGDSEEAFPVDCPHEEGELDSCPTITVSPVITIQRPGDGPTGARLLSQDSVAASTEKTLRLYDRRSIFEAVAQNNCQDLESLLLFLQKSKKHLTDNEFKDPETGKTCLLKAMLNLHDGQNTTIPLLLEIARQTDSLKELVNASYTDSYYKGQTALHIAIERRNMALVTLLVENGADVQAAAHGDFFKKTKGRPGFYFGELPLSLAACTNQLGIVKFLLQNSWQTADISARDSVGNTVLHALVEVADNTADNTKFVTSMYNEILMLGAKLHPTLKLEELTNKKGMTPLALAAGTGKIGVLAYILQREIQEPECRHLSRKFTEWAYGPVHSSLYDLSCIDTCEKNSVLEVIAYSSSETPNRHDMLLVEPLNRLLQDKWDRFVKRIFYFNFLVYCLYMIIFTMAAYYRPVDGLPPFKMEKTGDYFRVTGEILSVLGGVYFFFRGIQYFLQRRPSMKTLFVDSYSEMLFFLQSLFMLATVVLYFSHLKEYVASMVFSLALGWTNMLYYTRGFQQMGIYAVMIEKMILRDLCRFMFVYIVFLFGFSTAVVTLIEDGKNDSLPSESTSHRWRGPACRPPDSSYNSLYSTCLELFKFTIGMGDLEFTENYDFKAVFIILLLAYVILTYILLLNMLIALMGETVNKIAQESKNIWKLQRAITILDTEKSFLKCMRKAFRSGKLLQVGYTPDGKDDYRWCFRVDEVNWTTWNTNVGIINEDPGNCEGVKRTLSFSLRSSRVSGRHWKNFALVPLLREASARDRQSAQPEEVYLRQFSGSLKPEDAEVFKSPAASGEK
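Cells expressing TRPV1 were dye-loaded with Fluo-8 and read kinetically: 10 s baseline, 3 min after compound (agonist portion), then 2 min after EC20 capsaicin (allosteric enhancer portion). Calcium-bound dye fluorescence at 480/520 nm.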
An asterisk follows results filed as active; & = joins results of further samples; [ ] = another dose, or the depositor's remark.

Screening CCCN1CCN(C(=O)c2nn(-c3ccc(OC)cc3)c(=O)c3c2c2ccccc2n3C)CC1 returned Menin-MLL FL inh -0.2, ClpP mod -6.5%, gsp ag 1%, gsp antag -4%, Sfp inh 20% and TRPV1 PAM 5.
Screening Cc1ccc(-n2nc(C(=O)NCc3ccco3)c3c4ccccc4n(C)c3c2=O)cc1 returned Menin-MLL FL inh 0.0, ClpP mod -7.3%, gsp ag -8%, gsp antag 6%, Sfp inh 9%, CtBP-E1A inh -1 and TRPV1 PAM inconclusive.
`CCCCNC(=O)CCn1c(=O)c2ccccc2n(Cc2cc(C)ccc2C)c1=O` gave Menin-MLL FL inh 1.4, ClpP mod -2.3%&-3.7%, gsp ag 15%, gsp antag 3%, Sfp inh 14%, CtBP-E1A inh 0 and TRPV1 PAM -4.
For CCN(C(=S)Nc1ccc(C(C)=O)cc1)C1CCCCC1 the results were Menin-MLL FL inh 2.1, gsp ag 2%[15.4 µM], gsp antag 8%, Sfp inh 8%, CtBP-E1A inh 4 and TRPV1 PAM 2.
Screening CCOC(=O)CC(NC(=O)c1ccc(C)cc1)c1ccc(C)cc1 (configuration not stated) returned Menin-MLL FL inh 1.0, ClpP mod -5.1%, gsp ag 20%, gsp antag -11%, Sfp inh 11%, CtBP-E1A inh 2 and TRPV1 PAM -12.
Screening CSc1nc(N)nc2c1ncn2CC(=O)NCc1ccc2c(c1)OCO2 returned ClpP mod -27%, gsp antag 1% and CtBP-E1A inh 0.
For O=C(Nc1ccccc1)N1CCC(C(=O)N2CCCC(C(F)(F)F)C2)CC1 (configuration not stated) the results were ClpP mod -13%, gsp ag -41%[inhibitor], gsp antag -4%, Sfp inh 20%, CtBP-E1A inh -3 and TRPV1 PAM 4.
`Cc1c(C(=O)O)sc(S(=O)(=O)N2CCN(C(=O)Cc3ccccc3Cl)CC2)c1C(=O)O` gave ClpP mod -2.9%, gsp ag -62%[inhibitor], gsp antag inconclusive, CtBP-E1A inh 31 and TRPV1 PAM -1.
Screening Cc1cc(-c2n[nH]c(=S)n2Cc2ccco2)n(C)n1 returned Menin-MLL FL inh 3.3, ClpP mod -13%, gsp ag -15%[15.4 µM], gsp antag 8%, Sfp inh 50µM*, CtBP-E1A inh 11 and TRPV1 PAM -8.
`Cc1ccc(S(=O)(=O)NC(=O)Nc2ccccc2F)cc1` gave Menin-MLL FL inh 4.9, ClpP mod 1.4%, gsp ag 1%, gsp antag 9%, Sfp inh 13%, CtBP-E1A inh 13 and TRPV1 PAM -5.
Screening CC(C)c1nc2n[nH]c(N)c2c2c1CSC(C)(C)C2 returned Menin-MLL FL inh -1.5, ClpP mod -3.8%, gsp ag -46%[inhibitor], gsp antag 0%, Sfp inh 16%, CtBP-E1A inh -5 and TRPV1 PAM -17.
`O=C1NC(c2ccccc2)=C(c2nc3ccccc3s2)C(c2ccccc2)N1` (configuration not stated) gave Menin-MLL FL inh 5.2, ClpP mod -10%, gsp ag 8%, gsp antag 4%, Sfp inh -4%, CtBP-E1A inh -8 and TRPV1 PAM 6.

Brought forward from above: two compounds; new compounds follow.
Screening CC(C)c1nc2n[nH]c(N)c2c2c1CSC(C)(C)C2 returned Menin-MLL FL inh -1.5, ClpP mod -3.8%, gsp ag -46%[inhibitor], gsp antag 0%, Sfp inh 16%, CtBP-E1A inh -5 and TRPV1 PAM -17.
`O=C1NC(c2ccccc2)=C(c2nc3ccccc3s2)C(c2ccccc2)N1` (configuration not stated) gave Menin-MLL FL inh 5.2, ClpP mod -10%, gsp ag 8%, gsp antag 4%, Sfp inh -4%, CtBP-E1A inh -8 and TRPV1 PAM 6.
`COc1cc(OC)c(C(=O)OCC(=O)NCCC2=CCCCC2)cc1OC` gave ClpP mod -6.5%, gsp ag -9%, gsp antag -9%, CtBP-E1A inh -22 and TRPV1 PAM 5.
Screening CC(=O)Nc1ccc(S(=O)(=O)N(C)CC(=O)Nc2ccccc2N2CCOCC2)cc1 returned Menin-MLL FL inh -0.3, ClpP mod -0.5%, gsp ag 2%, gsp antag -8%, Sfp inh 24%, CtBP-E1A inh 3 and TRPV1 PAM -1.
`Cc1cccc(C(=O)NC2CCN(CC(=O)Nc3cccc(Cl)c3)CC2)c1` gave ClpP mod -0.7%, gsp ag -43%[inhibitor] and CtBP-E1A inh 8.
Screening O=C(Cn1cc(C(F)(F)F)cc(Cl)c1=O)NCCc1ccccc1 returned Menin-MLL FL inh 4.4, ClpP mod -1.3%, gsp ag 29%, gsp antag 7%, Sfp inh 8%, CtBP-E1A inh -2 and TRPV1 PAM 15.
`COc1ccc(S(=O)(=O)N(C)CC(=O)NCCC2=CCCCC2)cc1C` gave Menin-MLL FL inh -1.1, ClpP mod 0.3%, gsp ag -18%, gsp antag -9%, Sfp inh 6%, CtBP-E1A inh 0 and TRPV1 PAM -14.
Screening Cc1c(NS(=O)(=O)c2ccc(Cl)c(C(=O)OCC(=O)NCc3ccco3)c2)c(=O)n(-c2ccccc2)n1C returned Menin-MLL FL inh -7.2, ClpP mod 1.0%, gsp ag 5%[15.4 µM], gsp antag -14%, Sfp inh 15%, CtBP-E1A inh 3 and TRPV1 PAM 6.
For COc1ccc(C(OCC(O)CNCCc2ccc(S(N)(=O)=O)cc2)c2ccc(OC)cc2)cc1 (configuration not stated) the results were Menin-MLL FL inh 4.7, gsp ag 9%[15.4 µM], gsp antag -2%, Sfp inh -7%, CtBP-E1A inh -1 and TRPV1 PAM -10.
Screening CN(C)c1ccc(P(=O)(Nc2cccc(C(F)(F)F)c2)N2CCOCC2)c(NC(=O)c2cccs2)c1 (configuration not stated) returned Menin-MLL FL inh 10, gsp ag -10%, gsp antag -10%, Sfp inh 5%, CtBP-E1A inh -5 and TRPV1 PAM -8.
For CNC(=O)N1c2ccccc2C=Cc2ccccc21 the results were Menin-MLL FL inh -2.7, ClpP mod 1.1%, gsp ag -16%, gsp antag 4%, Sfp inh 3%, CtBP-E1A inh 1 and TRPV1 PAM 6.
Screening CCCCN(CC(=O)Nc1c(C)cccc1CC)C(=O)SCC returned Menin-MLL FL inh 3.8, ClpP mod -0.6%, gsp ag -37%[inhibitor], gsp antag 4%, Sfp inh 6%, CtBP-E1A inh 5 and TRPV1 PAM -21.
Screening COc1ccccc1C1C2=C(CCCC2=O)N(CC(=O)O)C2=C1C(=O)CCC2 returned Menin-MLL FL inh -4.4, gsp ag -6%, gsp antag -5%, Sfp inh -5%, CtBP-E1A inh -10 and TRPV1 PAM 3.
Screening O=C(N1CCN(CCO)CC1)N1c2ccccc2C=Cc2ccccc21 returned Menin-MLL FL inh -0.3, ClpP mod 0.6%, gsp ag -84%[inhibitor], gsp antag -1%, Sfp inh 10%, CtBP-E1A inh -25 and TRPV1 PAM -9.
For COc1ccc(-c2noc(N3CCC(C(=O)Nc4ccc(F)cc4)CC3)n2)cc1 the results were Menin-MLL FL inh -2.6, ClpP mod -0.8%, gsp ag 8%, gsp antag -11%, Sfp inh 1%, CtBP-E1A inh 7 and TRPV1 PAM -5.
Fc1ccc(/C=N/n2c(C3CCCCC3)n[nH]c2=S)cc1 was read as Menin-MLL FL inh 0.0, ClpP mod -0.9%, gsp ag 20%, gsp antag -18%, Sfp inh inconclusive, CtBP-E1A inh 0 and TRPV1 PAM -11.
For COc1ccccc1NS(=O)(=O)c1cn(C)cn1 the results were Menin-MLL FL inh 4.9, ClpP mod 0.8%, gsp ag -24%, gsp antag 12%, Sfp inh 13% and TRPV1 PAM -1.
Screening COc1ccc(C(=O)NCc2cccnc2)cc1S(=O)(=O)N1CCCc2ccccc21 returned Menin-MLL FL inh 1.4, ClpP mod -4.7%, gsp ag -14%[15.4 µM], gsp antag -11%, Sfp inh 24%, CtBP-E1A inh -19 and TRPV1 PAM 7.
`O=C(C1Cc2ccccc2CN1S(=O)(=O)c1ccc(F)cc1)N1CCCCCC1` (configuration not stated) gave Menin-MLL FL inh -1.3, ClpP mod 0.0%, gsp ag inconclusive, gsp antag -8%, Sfp inh -5% and CtBP-E1A inh 6.
`COc1ccc2c(-c3ccccc3)cc3nnnn3c2c1` gave Menin-MLL FL inh 1.5, ClpP mod -7.4%, gsp ag -11%, gsp antag 4%, Sfp inh -2%, CtBP-E1A inh 4 and TRPV1 PAM 9.
For NC(=O)C(c1ccccn1)c1ncc(C(F)(F)F)cc1Cl (configuration not stated) the results were Menin-MLL FL inh -6.6, gsp ag -30%[inhibitor], gsp antag 9%, Sfp inh -12%, CtBP-E1A inh -12 and TRPV1 PAM -14.
Cc1ncc(CO)c2c1Oc1nc(-c3ccccc3)nc(SCC(=O)N3CCOCC3)c1C2 was read as ClpP mod -2.1%, gsp ag inconclusive, gsp antag inconclusive, Sfp inh 29%, CtBP-E1A inh -22 and TRPV1 PAM 1.
`OCc1ccc(N=Nc2ccccc2)cc1` gave ClpP mod 0.4%, gsp ag 22% and gsp antag 3%.
`COc1ccc(C(=O)Nc2ccc(O)cc2C(=O)O)cc1` gave Menin-MLL FL inh -7.8, gsp ag 21%, gsp antag 2%, Sfp inh 8%, CtBP-E1A inh -7 and TRPV1 PAM -1.
Screening Cc1cc(=O)[nH]c2[nH][nH]c(=O)c12 returned ClpP mod -6.0%, gsp ag inconclusive, gsp antag -2% and CtBP-E1A inh 1.
O=C(Nc1ccncc1)C1CCN(S(=O)(=O)c2ccc(Cl)c(C(F)(F)F)c2)CC1 was read as ClpP mod -0.6%, gsp ag -1%, gsp antag -3%, CtBP-E1A inh 0 and TRPV1 PAM -16.
For CC[C@]12C(=O)N(C)C[C@H]([C@@H]3C(=O)N(C)C(=O)[C@@H]31)N2C(=O)c1ccc(Br)cc1 the results were ClpP mod -1.0%, gsp ag -13%, gsp antag 6% and CtBP-E1A inh 4.
`Cc1nn(C)cc1/C=C1\CCC/C(=C\c2cn(C)nc2C)C1=O` gave Menin-MLL FL inh -0.9, ClpP mod -1.3%, gsp ag -11%, gsp antag -12%, Sfp inh 17%, CtBP-E1A inh -2 and TRPV1 PAM 10.
Screening Nc1nc(SCC(=O)Nc2ncc(Cl)cc2Cl)n[nH]1 returned ClpP mod -7.1%, gsp ag -44%[inhibitor], gsp antag 7%, CtBP-E1A inh 6 and TRPV1 PAM 5.

Screening results: PubChem, National Center for Advancing Translational Sciences (NCATS)
